# GALR2 agonist: agonists of human galanin receptor 2 (GALR2) | 0.48% of 140,000 active | GALR2-expressing cells, agonist activation read-out | activation, %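 (tested at 5 µM)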 | O43603;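 active = above mean plus 3 SD of all compounds, about 5% in these data, not always enough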;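 note: 0% = vehicle buffer wells and 100% = reference agonist at full effect; tested in CHO reporter cells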
# HSV augment: HSV replication enhancement | maximum fold increase | HSV replication augmentation in cells, fold increase | 0.005% of 220,000 active;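 active = peak rise of 1.5-fold or more in the series; inconclusive = self-fluorescent or not available for retest; tested in PC3 cells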;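 note: first round at 10 µM; read as green reporter fluorescence; hits show the peak of a series up to 25 µM; 1 = signal of infected wells without compound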
# PKD1 inh: blocks activity of human protein kinase D1 | Q15139 | PKD1 kinase fluorescence polarization assay | inhibition, %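 (about 10 µM by stock and volumes)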 | 0.056% of 200,000 active | AID 797;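 active = inhibition of 50% or more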;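 note: controls were vehicle for no effect and a reference inhibitor for full effect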
# Target sequence (Q15139 whole entry, looked up): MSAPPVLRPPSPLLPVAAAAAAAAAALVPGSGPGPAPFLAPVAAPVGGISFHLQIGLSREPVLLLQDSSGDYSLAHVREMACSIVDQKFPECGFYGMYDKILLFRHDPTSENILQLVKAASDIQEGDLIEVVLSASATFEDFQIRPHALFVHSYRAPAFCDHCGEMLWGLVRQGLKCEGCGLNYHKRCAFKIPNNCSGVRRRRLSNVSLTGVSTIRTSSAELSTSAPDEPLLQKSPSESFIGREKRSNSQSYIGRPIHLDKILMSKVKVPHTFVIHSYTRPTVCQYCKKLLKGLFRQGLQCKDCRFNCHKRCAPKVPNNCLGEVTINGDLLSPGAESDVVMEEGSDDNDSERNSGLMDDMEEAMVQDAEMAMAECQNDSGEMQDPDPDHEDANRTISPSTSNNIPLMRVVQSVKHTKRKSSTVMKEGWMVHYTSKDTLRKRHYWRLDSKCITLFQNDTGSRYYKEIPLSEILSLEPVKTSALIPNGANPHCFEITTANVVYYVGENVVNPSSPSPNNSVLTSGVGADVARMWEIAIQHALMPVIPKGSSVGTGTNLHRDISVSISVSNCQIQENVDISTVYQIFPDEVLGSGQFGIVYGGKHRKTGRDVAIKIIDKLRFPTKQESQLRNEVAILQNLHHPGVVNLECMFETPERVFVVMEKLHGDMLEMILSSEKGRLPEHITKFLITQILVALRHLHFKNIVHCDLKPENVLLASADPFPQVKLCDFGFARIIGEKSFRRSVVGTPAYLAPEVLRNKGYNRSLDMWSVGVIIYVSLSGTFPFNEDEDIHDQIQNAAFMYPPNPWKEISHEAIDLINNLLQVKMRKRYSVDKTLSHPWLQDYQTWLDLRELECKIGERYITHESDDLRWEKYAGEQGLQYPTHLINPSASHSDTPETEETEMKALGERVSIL
# INS promoter inh: TRM-6 insulin promoter activity inhibition. TRM-6 cells (human fetal islet line), insulin promoter-eGFP reporter, imaging; reporter expression induced with tamoxifen. inhibition, % at 2 µM. 0.9% of 130,000 active. AID 1273;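 active = inhibition above the mean plus 3 SD, with well images judged a real hit on visual review, cut at about 60% in these data, passing the limit was not always enough; inconclusive = inhibition over the cutoff but images rejected on review; inactive = inhibition not above the cutoff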
# RGS16-Gao: RGS16-Galphao interaction regulator (human) | bead-based flow cytometry RGS16-Galphao binding, fluorescence; actives lie on both sides | O15492+P09471 | 0.38% of 220,000 active | binding response (% of control), % at 10 µM;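 active = below 25% or above 175%, edge rows of some plates excepted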;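 note: Galphao activated by GDP with aluminum fluoride before binding; 100% = wells without compound and 0% = beads without RGS; some results beyond the cut were filed as inactive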
# INS promoter inh cell count: recorded beside INS promoter inh, whose call it bears; normalized cell count, %; measured here: cell count, toxicity; reference of the scale not given here;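 cells exposed to compound for 48 h; stained nuclei by imaging scaled within each plate; lower means fewer cells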
# HSV augment primary fold: second read-out of HSV augment, no call of its own (marks repeat the call); fold increase; compound at 10 µM; measured here: primary screen fold increase 10 uM; tested in PC3 cells;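 GFP signal in the first replicate; 1 = infected wells without compound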
# An asterisk follows results filed as active; i = inactive; ? = inconclusive; . = no result given.
SMILES	GALR2 agonist	HSV augment	HSV augment primary fold	PKD1 inh	INS promoter inh	INS promoter inh cell count	RGS16-Gao
CC1CCN(CCOc2ccc(OCc3ccccc3)cc2)CC1	0.9	i	0.84	-5	-17	154	105
Cn1cc(C(=O)N/N=C/c2cccs2)c2ccccc21	-0.4	i	0.84	1	.	.	101
O=C(Nc1ccc(Cl)cc1)C1CCN(C(=O)NC2CCCCC2)CC1	-0.9	i	0.8	-4	19	85	86
O=C(N/N=C/c1coc2ccccc2c1=O)c1cn(-c2ccccc2)nc1-c1ccc(F)cc1	-1.2	i	0.84	-2	6	89	99
O=C(N/N=C\c1cccs1)c1sccc1-n1cccc1	.	i	0.95	0	-93	55	100
Cc1cc(Br)c2c(c1)/C(=C/C(=O)c1cccs1)C(=O)N2	.	i	0.83	7	.	.	97
COc1ccc(NC(=O)C(Cc2ccccc2)n2cccc2)c(OC)c1 (stereo unspecified)	.	i	0.94	.	.	.	101
COc1cccc(NC(=O)N2CCC(N3CCCCC3)CC2)c1	-1.1	i	1.2	-6	0	178	98
COCCN(CC(=O)Oc1ccccc1P(=O)(OC)OC)Cc1ccccc1	.	i	0.9	.	.	.	98
C#CCNC(=O)C1=C[C@H](c2ccc(C(F)(F)F)cc2)C[C@H](OCCCCO)O1	.	i	0.79	8	.	.	101
CC(C)(C)Cc1nnc(NC(=O)Cc2cccs2)s1	.	i	0.91	6	62	133	102
Cn1cc(CN2CCC(C(=O)N3CCCCC3)CC2)c(-c2ccccc2F)n1	.	i	1.1	3	.	.	107

# Retrieved one by one from the entries so far (two):
SMILES	GALR2 agonist	HSV augment	HSV augment primary fold	PKD1 inh	INS promoter inh	INS promoter inh cell count	RGS16-Gao
COc1cccc(NC(=O)N2CCC(N3CCCCC3)CC2)c1	-1.1	i	1.2	-6	0	178	98
Cc1cc(Br)c2c(c1)/C(=C/C(=O)c1cccs1)C(=O)N2	.	i	0.83	7	.	.	97

# New compounds follow.
SMILES	GALR2 agonist	HSV augment	HSV augment primary fold	PKD1 inh	INS promoter inh	INS promoter inh cell count	RGS16-Gao
CCOc1cc(C=O)ccc1OCc1cc(=O)n2cc(C)ccc2n1	.	i	1.2	-4	.	.	104
CC1(C)C2CC=C(/C=N/NC(=O)c3ccccc3O)C1C2 (stereo unspecified)	-0.6	i	1	4	-29	113	99
O=C(COC(=O)C1CCCC1)NCc1ccc(Cl)cc1	.	i	1	2	26	78	98
CN(C)c1cc(-c2ccc([N+](=O)[O-])cc2)oc(=O)c1Cl	.	i	1.1	.	.	.	92
COc1ccc(C2C(C#N)=C(N)Oc3cc(N)ccc32)cc1OC (stereo unspecified)	-0.2	i	0.89	-8	.	.	105
CCN(CC)S(=O)(=O)c1ccc(N(C)C)c(NC(=O)CC(NC(C)=O)c2ccccc2)c1 (stereo unspecified)	.	i	0.92	-2	.	.	101
COC(=O)c1ccc(SC)cn1	-0.9	i	1	-15	-20	119	105
O=C(CN1C(=O)C2(OCCCO2)c2ccccc21)NCCc1ccccc1	-0.8	i	0.92	-1	-23	86	99
Cc1ccc(C)c(CSc2ccc3nnc(-c4ccccn4)n3n2)c1	.	i	0.94	1	.	.	99
N#CC(C(N)=O)=C1CCCCC1	.	i	0.85	.	.	.	103
CC(C)(C)c1cc(C(=O)C[n+]2ccc(C(=O)NCCCO)cc2)cc(C(C)(C)C)c1O	.	i	0.92	.	.	.	102
CCOC(=O)c1ccc2c(c1)C(=O)N(C1CCCCC1)C2=O	-0.5	i	0.79	-4	-21	91	101
CC1CCCCC1NC(=S)Nc1cccc(S(=O)(=O)N(C)C)c1 (stereo unspecified)	.	i	1.2	1	.	.	98
O=C(Cn1c(CSc2ccccc2)nc2ccccc21)Nc1ccccc1	-1.6	i	0.89	-6	7	178	102
COc1cccc(C(=O)NCC(=O)OCC(=O)Nc2cc(OC)c([N+](=O)[O-])cc2C)c1	-0.9	i	0.98	5	.	.	22
CC1(C(=O)Nc2nnc(SCc3ccccc3)s2)Cc2ccccc2C(=O)O1 (stereo unspecified)	-1.3	i	0.98	8	20	78	90
CCOC(=O)C1C(=O)CC(C)(O)C(C(=O)OCC)C1c1ccc([N+](=O)[O-])cc1 (stereo unspecified)	.	i	1.1	.	.	.	100
CC(=O)NC12CC3CC(C1)CC(C(=O)OCC(=O)NC(=O)c1cccn1C)(C3)C2	-2.4	i	0.92	3	.	.	91
CC(=O)C1=C(O)C(=O)N(CCN2CCOCC2)C1c1ccc(N(C)C)cc1 (stereo unspecified)	-0.8	i	0.9	-3	51	72	.
O=C(O)C1CCN(C(=O)c2ccccc2C(=O)N2CCC(C(=O)O)CC2)CC1	-0.3	i	0.82	-1	.	.	104
Cc1ccc(CNc2ccc3c(c2)ncn3C(C)(C)C)cc1	.	i	0.87	5	.	.	92
Cc1ccsc1C1NC(=O)c2ccccc2N1 (stereo unspecified)	-2.5	i	0.85	-6	27	104	101
S=c1[nH]cc(-c2ccc(Cl)cc2)n1-c1ccccc1	0.0	i	0.96	-4	-3	138	98
CCOC(=O)c1ccc(NC(=O)CN2C(=O)CSCC2=O)cc1	-0.7	i	1.2	7	.	.	110
O=C(c1ccc2nc(N3CCOCC3)sc2c1)N1CCCC1	-1.9	i	0.95	-4	30	78	100
COc1ccc(/C=N/n2c(SC)nnc2-c2ccccc2)cc1C	0.7	i	0.84	5	33	152	98
Cc1ccc(C(=O)CSc2n[nH]c(-c3ccco3)n2)cc1C	0.1	i	0.97	-9	32	91	115
COCc1[nH]nc2c1C1(C(=O)N(C)c3ccccc31)C(C#N)=C(N)O2 (stereo unspecified)	-0.5	i	0.92	-7	.	.	95
c1coc(C2OCC3(CO2)COC(c2ccco2)OC3)c1 (stereo unspecified)	.	i	1.1	.	.	.	106
Cc1ccc(-c2noc(CN3CCC(C(N)=O)CC3)n2)cc1	-0.3	.	.	4	.	.	135
C=CCn1c(SCc2c(C)noc2C)nc2sc3c(c2c1=O)CCC(C)C3 (stereo unspecified)	-1.4	i	0.97	-2	-17	149	101
CNC(=S)N1CCc2ccccc2C1	-1.3	i	0.94	5	22	181	101
CCOC(=O)c1cc(NC(=O)c2ccc(OC)cc2)c(=O)oc1-c1ccccc1	-1.8	i	1.2	-9	21	135	98
NNC(=O)c1oc2nc(-c3ccco3)cc(-c3ccco3)c2c1N	.	?	.	.	.	.	95
NC(=O)CNC(=O)[C@@H]1CC2(CC(c3ccccc3)=NO2)CN1C(=O)c1ccc(Br)cc1 (stereo partly specified)	-0.8	i	0.72	1	.	.	99
Cc1ccc(NC(=O)c2oc3c(c2C)C(=O)CC(C)(C)C3)cc1	-0.9	i	0.92	2	62	135	82
Cc1nnc(SCc2ccc([N+](=O)[O-])cc2)[nH]c1=O	.	i	0.96	-3	-42	95	96
Cc1ccc(N=Cc2c(O)ccc3ccccc23)cc1F	-1.6	i	1	-8	-20	110	53
CCOC(=O)C1CN(S(=O)(=O)c2ccc(Cl)cc2)c2cc(S(=O)(=O)CC)ccc2O1 (stereo unspecified)	.	i	0.99	2	-30	62	103
CCOC(=O)c1ccc(NC(=O)CSc2nc3ncccc3[nH]2)cc1	-0.3	i	0.97	-1	11	211	100
O=S(=O)(Nc1ncnc2scc(-c3ccc(F)cc3)c12)c1cc(F)ccc1F	.	i	0.82	.	.	.	99
COc1ccc(C(=O)Nc2c(Cl)cc(Cl)cc2C(=O)N2CCOCC2)cc1	.	i	1.1	-2	.	.	90
CN(CC(=O)Nc1ccc(Cl)c(Cl)c1)C(=O)/C=C/c1ccc(F)cc1	-2.9	i	0.95	3	.	.	99
Cc1cc(C2=NNC(=NCCc3ccccc3)SC2)c(C)n1CC1CCCO1 (stereo unspecified)	.	i	0.95	-6	.	.	101
O=C(/C=C/c1ccccc1)NCCc1ccc2c(c1)OCCO2	-1.2	i	1.1	10	.	.	101
COc1cccc(C(=O)Nc2ccc(N(C)C)cc2)c1OC	-2.1	i	0.69	-8	-10	119	96
O=C(COC(=O)/C=C/c1cn(-c2ccccc2)nc1-c1ccc2c(c1)OCCO2)NC1CCS(=O)(=O)C1 (stereo unspecified)	.	i	0.94	.	.	.	102
COc1ccc(S(=O)(=O)NCc2ccccn2)cc1Cl	-0.1	i	1.1	-1	-492	60	104
N#CC1=C2N=C(N)c3ccccc3N2C2=C(C(=O)CCC2)C1c1cccc(Cl)c1 (stereo unspecified)	-1.6	.	.	-7	-2	80	102
Cc1cc(-c2ccc(N3CCOCC3)cc2)nc2ccccc12	-2.0	i	1.1	8	.	.	103
CCCCSc1nn[nH]n1	-2.3	i	0.78	-15	20	116	113
CCc1nn(C(C)C(=O)N2CCc3ccccc3C2)c(=O)c2cc3occc3n12 (stereo unspecified)	-1.2	i	0.99	5	19	114	103
CC(=O)O[C@]1(C(C)=O)CC[C@H]2[C@@H]3C[C@H](C)C4=CC(=O)CC[C@]4(C)[C@H]3CC[C@@]21C	0.9	i	0.98	-7	-13	89	.
CCOC(=O)Cc1nnc(NC(=O)CSc2ccc(C)cc2)s1	-1.4	i	0.79	-1	-11	99	98
C/C(CC(=O)Nc1cc(C)ccn1)=N\NC(=O)c1ccc(C)cc1	.	i	1.1	-5	2	94	103
CC(C)NS(=O)(=O)c1ccc(OCC(=O)NCCC2=CCCCC2)cc1	-0.6	i	0.64	8	-19	98	101
COc1ccc(NS(=O)(=O)c2ccc3c(c2)CCO3)cc1	.	i	1.1	.	.	.	99
CCNc1ccc(C(=O)Nc2ccc3nc(C)sc3c2)cc1[N+](=O)[O-]	-0.7	i	1	2	26	103	99
Cn1cccc1C(=O)N1CCN(c2cccc(C(F)(F)F)c2)CC1	-1.3	i	0.84	-12	-55	122	93
O=C(NCCN1CCOCC1)c1csc2c1CCCC2	0.5	i	0.75	4	0	123	104

# Continuation.
SMILES	GALR2 agonist	HSV augment	HSV augment primary fold	PKD1 inh	INS promoter inh	INS promoter inh cell count	RGS16-Gao
CC(=O)Nc1ccc(-c2csc(Nc3ccccn3)n2)cc1	.	i	0.95	.	.	.	104
Cc1cccc(Cn2c(=O)n(CCCC(=O)NCc3ccco3)c(=O)c3ccccc32)c1	0.2	i	0.6	-4	-25	108	101
Nc1nc(SCC(=O)N2CCc3ccccc32)[nH]c(=O)c1-c1ccccc1	-1.4	i	1	-5	-248	29	107
CCn1c(SCC(=O)Nc2c(C)n(C)n(-c3ccccc3)c2=O)nnc1-c1cccc(C)c1	-1.3	.	.	-4	-73	89	103
CCC(C(=O)Nc1ccccc1OC)n1c(C(=O)OC)cc2ccsc21 (stereo unspecified)	-0.1	i	0.89	-2	50	101	104
Cc1ccc(S(=O)(=O)N2CCOCC2)cc1C(=O)Nc1ccc(C(N)=O)cc1	.	i	1.4	.	.	.	99
Cc1nnc2ccc(-c3ccc(NS(C)(=O)=O)cc3)nn12	.	i	1.1	-3	-21	115	104
N=C1C(c2nc3ccccc3s2)=C(O)CN1NC(=O)c1ccc([N+](=O)[O-])cc1	.	i	1	-8	.	.	102
C[C@H](N)c1nnc(SCC(N)=O)o1	.	i	0.91	.	.	.	101
CCCCN(CC)S(=O)(=O)c1c(C)[nH]c(=O)[nH]c1=O	.	i	0.96	-10	36	105	106
CCN(CC)c1ccc(NC(=O)CN2CCN(c3ccccc3F)CC2)cc1	-3.6	i	0.96	-4	-29	96	104
CCCCn1nnnc1NCc1cccc(OC)c1OC	-0.6	i	0.82	2	-3	73	100
O=C(c1cc(COc2ccc(F)cc2Cl)on1)N(Cc1ccncc1)CC1CCCO1 (stereo unspecified)	.	i	1.2	0	.	.	99
O=C(Nc1ccc(N2CCOCC2)cc1)Nc1ccc2nsnc2c1	.	i	0.98	1	0	111	94
COc1ccc(NC(=O)CSc2nnc(-c3ccccc3)n2N)cc1	-1.5	i	1.1	0	-385	77	100
CCn1ncc(C2=NOC(C(=O)NCc3ccc(OC)cc3)C2)c1C (stereo unspecified)	-1.4	i	1	-7	.	.	106
CN(C(=O)CC(=O)Nc1ccc(Cl)c(Cl)c1)c1ccccc1	.	i	1	0	-25	95	105
COc1ccc(-n2c(C)nn(CC3CC3)c2=O)cc1	.	i	0.92	-3	.	.	99
Cc1[nH]c(=O)[nH]c(=O)c1S(=O)(=O)N1CCCC(C(=O)NCc2ccco2)C1 (stereo unspecified)	-1.8	i	0.98	2	16	122	100

# Compound activity deposited in PubChem by several laboratories.

# Outcome played no part in choosing rows (roughly 1.1% active in at least one column).
